Calb FLC: C. albicans growth inhibition with fluconazole, primary screen, CaCi-2 strain, Alamar Blue fluorescence; actives 0.57% (n = 300,000); growth inhibition, % (concentration not given with the values); AID 1979, 2009; C. albicans CaCi-2 (fluconazole-resistant clinical isolate) + fluconazole, 48 h;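 active = most replicates above 75%; inconclusive = exactly half above 75%; inactive = most below 75%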;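 also: all wells also contain fluconazole at 8 µg/ml as a sub-toxic cotreatment; 0% = median of DMSO wells and 100% = median of geldanamycin control wells; wells of about 8 µL received 7.5 nL stock; the first replicate is given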
Beta cell apopt: inhibitors of cytokine-induced beta cell apoptosis, primary screen, luminescence. INS-1E cytokine-induced death, ATP luminescence, 48 h; percent of positive-control rescue, neutral wells zero. protection from apoptosis, % (test concentration not listed). actives 0.8% (n = 300,000). AID 435005, 2010;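 active = all replicates at 75% or more, or half of them and the mean; inconclusive = half reach 75% but not the mean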;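 also: 0% = cytokine-treated negative control wells and 100% = positive control rescue; higher means more ATP so stronger rescue from cytokine killing; wells of about 40 µL received 100 nL stock; the first replicate is given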
T cruzi repl: inhibitors of intracellular T. cruzi growth, primary screen, luminescence, NIH3T3 host cells | T. cruzi beta-gal in NIH3T3, 90 h | inhibition, % (concentration not given with the values) | actives 1.4% (n = 300,000) | AID 1885, 2009;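 active = mean inhibition across valid replicates above about 55%, limit read from the data; inconclusive = mean below that limit but half or more replicates reach it; inactive = mean below it, under half of replicates reach it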;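 also: signal also drops with host cell toxicity which is not excluded here; 0% = plate median of DMSO wells and 100% = zero luminescence signal; higher percent means less beta-gal luminescence so fewer parasites; stock transfer was 50 nL into about 50 µL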
RanGTP-Imp inh: inhibitors of RanGTP-importin-beta interaction, primary screen, biochemical, FRET, CFP-Ran, YFP-importin-beta, homogeneous; cell-free CFP-Ran/YFP-importin-beta FRET ratio; inhibition, % (test concentration not listed); actives 1.1% (n = 300,000); AID 2216, 2009;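 active = most replicates above 15%; inconclusive = exactly half above 15%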;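 also: 0% = DMSO wells and 100% = Ran loaded with GDP instead of GTP; wells of about 40 µL received 100 nL stock; the first replicate is given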
UCH37 DUB inh: inhibitors of human UCH37 deubiquitinase, primary screen, biochemical, Ub-AMC cleavage, fluorescence | Ubiquitin carboxyl-terminal hydrolase isozyme L5 (Homo sapiens), Q9Y5K5 | purified proteasome/UCH37 | actives 0.33% (n = 330,000) | inhibition, % (no concentration beside the values);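 active = mean of two replicates above 20%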;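 also: 0% = compound-free wells with enzyme and 100% = wells lacking proteasome; stock transfer was 100 nL into about 20 µL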
Target sequence (Q9Y5K5 whole entry, looked up): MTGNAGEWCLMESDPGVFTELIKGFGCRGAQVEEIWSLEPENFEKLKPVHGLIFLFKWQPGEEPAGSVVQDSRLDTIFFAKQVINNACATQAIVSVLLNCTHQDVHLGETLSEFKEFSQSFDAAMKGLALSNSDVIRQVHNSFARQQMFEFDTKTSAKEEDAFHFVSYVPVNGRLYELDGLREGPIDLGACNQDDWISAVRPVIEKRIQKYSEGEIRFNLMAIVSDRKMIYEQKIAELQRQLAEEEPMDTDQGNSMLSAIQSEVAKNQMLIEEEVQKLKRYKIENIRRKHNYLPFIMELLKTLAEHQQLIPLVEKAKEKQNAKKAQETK
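Material: Human UCH37 enzyme supplied as purified proteasome complex | Schedule: 30 min preincubation with enzyme, 25 min cleavage at room temperature | Detection: AMC fluorescence 355/460 nm | Measure: % inhibition of Ub-AMC cleavage fluorescence | Controls: Wells without proteasome as full block, compound-free enzyme plus substrate as uninhibited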
B2AR ag: beta2AR agonists driving receptor internalization, primary screen, cell-based, FAP fluorogen, flow cytometry; Beta-2 adrenergic receptor (Homo sapiens), P07550; Am2.2-beta2AR cells; reference of the scale not given here; response, % (test concentration not listed); actives 0.43% (n = 340,000); AID 504454, 2011;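 active = response above a set limit, near 3 SD of response in nonfluorescent compounds, cut at about 42% in these data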;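 also: stock transfer was 100 nL into about 11 µL; a reference agonist was the positive control; negative values mostly stem from fluorescent compounds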
Target sequence (P07550 whole entry, looked up): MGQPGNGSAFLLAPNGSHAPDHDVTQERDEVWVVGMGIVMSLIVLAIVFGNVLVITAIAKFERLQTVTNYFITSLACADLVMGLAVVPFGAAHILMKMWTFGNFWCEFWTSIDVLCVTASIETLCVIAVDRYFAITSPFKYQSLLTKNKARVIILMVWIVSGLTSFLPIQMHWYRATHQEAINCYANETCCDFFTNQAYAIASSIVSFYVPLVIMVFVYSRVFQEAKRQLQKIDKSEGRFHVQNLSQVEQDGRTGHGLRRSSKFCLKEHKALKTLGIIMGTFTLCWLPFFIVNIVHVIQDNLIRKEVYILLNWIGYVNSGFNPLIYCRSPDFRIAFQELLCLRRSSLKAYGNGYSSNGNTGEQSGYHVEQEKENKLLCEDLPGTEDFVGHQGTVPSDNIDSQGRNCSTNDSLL
LANA-H2A inh: blockers of LANA interaction with H2A/H2B – biochemical, FP readout, HTS, primary screen; Protein LANA1 (Human herpesvirus 8 type P (isolate GK18)), Q9QR71; cell-free LANA-H2A/H2B peptide, fluorescence polarization; inhibition, % (test concentration not listed); actives 0.6% (n = 320,000); AID 2629, 2010; in the data active = inhibition mostly above about 10%, no sharp cut-off; inactive = mostly below about 6.7%;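 also: stock transfer was 7.5 nL into about 10 µL; 0% = median of vehicle wells and 100% = median of positive control wells; one replicate is shown; the record names a cut of 25% in any replicate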
Bfl-1 A1 inh: caspase 3/7 activation in MEF A1-2A-BIM cells, primary screen, A1 inhibitor project, cell-based, luminescence, HTS; AID 2462, 2010; caspase activation, % (concentration not given with the values); actives 0.066% (n = 330,000); Caspase-Glo 3/7 luminescence, 3 h; percent of clofoctol response, vehicle zero;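 active = over half of replicate activation scores above 10%, or exactly half above 10 with the replicate mean above 10; inconclusive = replicate mean below 10 yet half the replicates above 10; inactive = over half of replicates below 10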;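 also: wells of about 30 µL received 50 nL stock; many hits fall short of the cut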
The depositor's hits bear a star; ? = inconclusive; . = not tested or not shown.

1: C=CCn1c(CSc2ccc(C)cc2)n[nH]c1=S
2: CC(C)CNS(=O)(=O)c1ccccc1C(=O)N1CCCCC1
3: COc1cc(OC)cc(C(=O)NCCOC23CC4CC(CC(C4)C2)C3)c1
4: O=C(CSCc1ccccc1)NCCCN1CCOCC1
5: CCn1c(SCC(=O)N2CCOCC2)nc2ccccc21
6: Cc1ccc(S(=O)(=O)/N=C(/Nc2ccc3[nH]c(=O)[nH]c3c2)c2ccccc2)cc1
7: CC(C)NS(=O)(=O)c1ccc(NC(=O)NC2CCCCC2)cc1
8: O=C(c1cccnc1)N1CCN(c2ccc(Cl)cc2)CC1
assay / entry	1	2	3	4	5	6	7	8
Calb FLC	7	-14	-21	3	0	9	-11	-5
Beta cell apopt	-5	0	-4	5	-3	-3	3	1
T cruzi repl	-4	-1	32	2	-6	1	-7	7
RanGTP-Imp inh	0.0	-2.7	-9.0	-0.2	-2.8	0.1	-2.5	2.7
UCH37 DUB inh	-1.1	1.6	3.5	0.0	-1.1	5.5	1.2	3.1
B2AR ag	12	-1	-6	2	2	-3	1	4
LANA-H2A inh	4.3	-1.3	-3.0	-10	-0.7	-8.8	1.1	0.0
Bfl-1 A1 inh	0.9	0.1	0.0	0.5	-0.3	0.7	-0.6	0.1

9: O=C(NC1CCCCC1)c1cc2ccccc2cc1O
10: O=C(Nc1ccc2c(c1)C(=O)NC2=O)c1ccc(Cl)s1
11: CN(Cc1ccccc1)c1nc2c(c(=O)[nH]c(=O)n2C)n1CCCc1ccccc1
12: CCCCN1C(N)=NC[C@@H]1Cc1ccc(O)cc1
13: Cc1c(NC(=S)/C=C2\N(C)c3ccccc3C2(C)C)c(=O)n(-c2ccccc2)n1C
14: Cc1cc(C(=O)CS(=O)(=O)c2ccc(Cl)cc2)cc(C)c1O
15: Cc1ccccc1C(=O)OC(C)CN1CCN(C)CC1 (stereo not given)
16: Cc1ccc(SCC(=O)NCc2ccco2)cc1
assay / entry	9	10	11	12	13	14	15	16
Calb FLC	28	-9	-10	9	23	15	-37	-7
Beta cell apopt	10	.	3	-22	37	0	-5	-3
T cruzi repl	5	21	30	-18	-4	0	37	-16
RanGTP-Imp inh	13	2.8	-0.2	0.8	-1.3	-3.1	-0.1	0.1
UCH37 DUB inh	1.3	-64	1.0	-1.5	8.2	9.8	0.6	3.3
B2AR ag	19	-4	14	-6	7	1	2	11
LANA-H2A inh	-4.6	-1.3	-0.6	2.1	-5.1	1.5	1.0	2.2
Bfl-1 A1 inh	0.0	-0.5	-0.5	1.2	-1.0	0.0	0.3	0.4

A second format for some results above.
| # | SMILES | Calb FLC | Beta cell apopt | T cruzi repl | RanGTP-Imp inh | UCH37 DUB inh | B2AR ag | LANA-H2A inh | Bfl-1 A1 inh |
| --- | --- | --- | --- | --- | --- | --- | --- | --- | --- |
| 6 | Cc1ccc(S(=O)(=O)/N=C(/Nc2ccc3[nH]c(=O)[nH]c3c2)c2ccccc2)cc1 | 9 | -3 | 1 | 0.1 | 5.5 | -3 | -8.8 | 0.7 |
| 11 | CN(Cc1ccccc1)c1nc2c(c(=O)[nH]c(=O)n2C)n1CCCc1ccccc1 | -10 | 3 | 30 | -0.2 | 1.0 | 14 | -0.6 | -0.5 |
| 10 | O=C(Nc1ccc2c(c1)C(=O)NC2=O)c1ccc(Cl)s1 | -9 | . | 21 | 2.8 | -64 | -4 | -1.3 | -0.5 |
| 7 | CC(C)NS(=O)(=O)c1ccc(NC(=O)NC2CCCCC2)cc1 | -11 | 3 | -7 | -2.5 | 1.2 | 1 | 1.1 | -0.6 |
| 14 | Cc1cc(C(=O)CS(=O)(=O)c2ccc(Cl)cc2)cc(C)c1O | 15 | 0 | 0 | -3.1 | 9.8 | 1 | 1.5 | 0.0 |

Next part:
17: CCc1cccc(CC)c1NC(=O)C1CSC2(C)CCC(=O)N12 (stereo not given)
18: CCOC(=O)c1ccc2cccc(C)n2c1=O
19: COC(=O)c1ccccc1NC(=O)CSc1nnnn1C
20: COc1ccc(C(=O)NCc2nnc(SCC(=O)Nc3cccc(F)c3)o2)cc1
21: CN(C)CCCCCN(C)Cc1cc2ccccc2o1
22: CCCCCC(=O)Nc1cccc(C2=NOC3(C2)C[C@@H](C(N)=O)N(C(=O)Cc2ccc([N+](=O)[O-])cc2)C3)c1 (stereo not given in full)
23: Nc1nc(C2CC(=O)OC23CCCCC3)cs1 (stereo not given)
24: C[C@]12CCC[C@H](O1)c1c(cc3c(c1O)C(=O)c1c(O)cc(O)cc1C3=O)O2
assay / entry	17	18	19	20	21	22	23	24
Calb FLC	5	2	-2	?	2	0	-5	14
Beta cell apopt	-7	4	0	2	.	1	-4	7
T cruzi repl	-6	2	-4	-7	70*	48	-9	-5
RanGTP-Imp inh	1.0	6.1	3.9	-5.4	-0.8	1.8	21*	?
UCH37 DUB inh	.	7.7	-0.6	.	-1.9	4.1	0.3	5.2
B2AR ag	14	-8	-5	-2	9	-7	-3	-255
LANA-H2A inh	-3.5	0.1	-0.2	-4.5	-2.6	-3.3	9.2	-7.1
Bfl-1 A1 inh	3.2	-0.1	0.2	-0.5	-0.2	0.1	0.9	-0.8

A second format for some results above:
Order of values – Calb FLC, Beta cell apopt, T cruzi repl, RanGTP-Imp inh, UCH37 DUB inh, B2AR ag, LANA-H2A inh, Bfl-1 A1 inh
18	CCOC(=O)c1ccc2cccc(C)n2c1=O
    2, 4, 2, 6.1, 7.7, -8, 0.1, -0.1
20	COc1ccc(C(=O)NCc2nnc(SCC(=O)Nc3cccc(F)c3)o2)cc1
    ?, 2, -7, -5.4, ., -2, -4.5, -0.5

Later entries.
25: FC(F)(F)c1ccc(-n2cnc3ccccc32)nc1
26: N#CCCN(C(=O)COC(=O)C12CC3CC(CC(O)(C3)C1)C2)c1ccc(F)cc1
27: O=C1CN(C(=O)c2ccc(Br)o2)C(c2ccccc2)c2cc(Cl)ccc2N1 (stereo not given)
28: COc1cc(CNCCSc2nnnn2C)cc(Br)c1OCc1ccc(F)cc1
29: CCN(CC)c1nc2c(c(=O)[nH]c(=O)n2C)n1CCOc1ccccc1
30: N#C/C(=C\c1ccc(O)c(O)c1)S(=O)(=O)c1ccccc1
31: Clc1ccc2oc3c(Cl)ncnc3c2c1
32: O=C(NCc1nnc(SCC(=O)N2CCN(c3ccccc3)CC2)o1)c1ccco1
assay / entry	25	26	27	28	29	30	31	32
Calb FLC	7	.	11	0	4	0	-2	-5
Beta cell apopt	.	-8	-1	-2	-1	0	-2	5
T cruzi repl	5	.	19	41	5	-29	-61	-6
RanGTP-Imp inh	4.7	.	1.6	-3.6	2.7	?	-2.1	5.3
UCH37 DUB inh	1.6	6.2	6.8	0.9	1.2	12	.	0.3
B2AR ag	-4	-5	6	21	-3	12	37	24
LANA-H2A inh	1.9	8.0	-1.4	-8.1	6.9	4.3	-1.5	-24
Bfl-1 A1 inh	-0.4	-0.6	0.2	0.7	2.1	1.0	0.5	0.0

Another view of part of the listing above:
no.	compound	Calb FLC	Beta cell apopt	T cruzi repl	RanGTP-Imp inh	UCH37 DUB inh	B2AR ag	LANA-H2A inh	Bfl-1 A1 inh
16	Cc1ccc(SCC(=O)NCc2ccco2)cc1	-7	-3	-16	0.1	3.3	11	2.2	0.4
15	Cc1ccccc1C(=O)OC(C)CN1CCN(C)CC1 (stereo not given)	-37	-5	37	-0.1	0.6	2	1.0	0.3
12	CCCCN1C(N)=NC[C@@H]1Cc1ccc(O)cc1	9	-22	-18	0.8	-1.5	-6	2.1	1.2

(cont.)
33: CC(C)CCn1c(=O)c2ccccc2n2c(CCC(=O)NC3CCN(Cc4ccccc4)CC3)nnc12
34: COc1cccc(/C=N/NC(=O)CSc2cccc3cccnc23)c1
35: CNC(=S)N1CCN(c2c(F)cc3c(=O)c(C(=O)O)cn(C4CC4)c3c2OC)CC1C (stereo not given)
36: COc1ccc(CC2(CO)CCN(Cc3cccnc3)CC2)cc1
37: Cn1nc(C(F)(F)F)c(C#N)c1N1CCN(c2ccccn2)CC1
38: Cc1nn(-c2ccccc2)c(C)c1C(=O)Nc1ccc(N2CCOCC2)cc1
39: COc1ccc2oc(=Nc3cc(F)ccc3F)c(C(N)=O)cc2c1
40: CCOC(=O)C1CCN(C(=O)N2CCOCC2)CC1
assay / entry	33	34	35	36	37	38	39	40
Calb FLC	-11	-11	-9	-4	-5	-9	51	-1
Beta cell apopt	2	8	7	0	-6	5	-10	-1
T cruzi repl	24	8	-11	15	-6	2	-1	3
RanGTP-Imp inh	3.2	-2.4	-1.1	-2.0	?	-6.2	0.0	2.6
UCH37 DUB inh	1.2	.	-18	-1.8	-1.0	1.2	-0.4	2.2
B2AR ag	-2	6	3	6	-4	-2	22	1
LANA-H2A inh	5.9	1.5	2.4	3.9	-0.3	3.8	7.7	-3.1
Bfl-1 A1 inh	1.9	1.1	1.1	0.5	-0.1	-0.1	0.1	0.6

41: O=C(O)c1cc(N2C(=O)C3C4C=CC(C4)C3C2=O)ccc1NCc1cccnc1 (stereo not given)
42: Cc1cccc(/C=C2\CCC(C3CCCC3)C2=O)c1 (stereo not given)
43: O=C(c1ccc(N2CCCC2=O)cc1)N1CCN(c2ccccc2F)CC1
44: COc1cc(CNc2ncn[nH]2)cc(Br)c1OC
45: CCCc1nc2oc3ccccc3c(=O)c2c(=O)n1-c1ccc(C)cc1
46: COc1ccccc1-c1nc(N)n[nH]1
47: COC(=O)C1=C(C)NC(C)=C(C(=O)OCC2CCCO2)C1c1cccc(Cl)c1 (stereo not given)
48: CCn1cc(C(=O)NCc2ccco2)c2cc(OC)c(OC)cc2c1=O
assay / entry	41	42	43	44	45	46	47	48
Calb FLC	4	-24	4	-6	-1	2	-9	34
Beta cell apopt	-6	0	-4	-6	4	-7	1	-8
T cruzi repl	-17	-1	-6	-12	24	9	35	3
RanGTP-Imp inh	3.6	-1.2	-3.3	2.1	-3.8	-0.8	-2.1	0.2
UCH37 DUB inh	-27	-0.2	0.5	4.3	4.7	4.4	-44	5.3
B2AR ag	4	-11	-12	-3	-3	5	-1	-7
LANA-H2A inh	-5.4	-6.3	2.9	3.6	-4.9	0.6	1.6	0.6
Bfl-1 A1 inh	0.6	0.1	1.4	-2.8	-0.7	1.8	0.2	1.4
